Screening results: PubChem BioAssay, several laboratories
CBX7 inh – inhibitors of human CBX7 binding to H3K27me3 peptide; O95931; 1.1% of 66,000 active; normalised signal (fraction of DMSO) (concentration not given with the values); AlphaScreen His6-CBX7 / biotin-H3K27me3 peptide binding; stronger effect = lower value; in the data active = normalised signal below about 0.5;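 also: 100 nL library stock added to about 20 µL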
Target sequence (O95931 whole entry, looked up): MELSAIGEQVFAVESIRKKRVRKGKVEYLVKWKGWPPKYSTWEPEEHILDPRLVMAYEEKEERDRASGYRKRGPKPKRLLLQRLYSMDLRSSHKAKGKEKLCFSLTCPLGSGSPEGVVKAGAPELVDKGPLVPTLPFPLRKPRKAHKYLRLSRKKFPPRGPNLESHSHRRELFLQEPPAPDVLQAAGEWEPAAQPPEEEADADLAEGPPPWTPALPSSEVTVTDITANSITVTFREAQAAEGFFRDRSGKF
CBX7 inh z-score – recorded beside CBX7 inh, whose call it bears; z-score; measured here: z-score of CBX7 signal; some inactives read as strong as hits; reference of the scale not given here;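 same signal on another scale; lower means less binding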
* marks the source's active call; other numbers are inactive results; & = joins results of further samples; ! = not active in a repeat.

SMILES | CBX7 inh | CBX7 inh z-score
O=C(CCNC(=O)Cn1ccc2ccccc2c1=O)NCCCN1CCN(c2ccccc2F)CC1 | 1.1 | 3.1
COc1cc(Nc2nc(-c3ccc(C4CCCCC4)cc3)cs2)c(OC)cc1Cl | 0.46*! | -6*!
COc1ccc(Nc2cc(C)nc3nc(C)nn23)cc1Cl | 1 | 0.89
COc1ccc(OC)c(CNC(=O)Cn2ncc3c2-c2cc(C)ccc2OC3)c1 | 0.97 | -0.59
C=CCc1cc(C)ccc1OCC(O)Cn1c(C)nc2ccccc21 (stereo not given) | 0.91 | -2.1
O=C(CCCCN1CCCCC1)Nc1nc(-c2ccccc2)cs1 | 1&1 | 0.96&0.49
CC1CCN(S(=O)(=O)c2csc(C(=O)Nc3ccccc3)c2)CC1 | 0.97 | -0.8
C=CCNC(=O)c1oc2ccc(S(=O)(=O)N3CCC4(CC3)OCCO4)cc2c1C | 0.99 | -0.32
CC1CCCC(NC(=O)C2CCN(c3nc4ccccc4o3)CC2)C1C (stereo not given) | 0.87 | -2.5
Cc1ccc(-c2nc3ncccc3o2)cc1NC(=O)COc1ccc(Cl)cc1C | 1.2 | 2
Cc1oc(-c2ccc(Cl)cc2)nc1C(=O)NCCc1ccccc1 | 0.95 | -0.89
Cc1ccccc1C(=O)Nc1ccc(-c2nc3ncccc3o2)cc1 | 1.1 | 1.3
O=C(Nc1ccc(-c2noc(/C=C/c3ccccc3)n2)cc1)c1ccncc1 | 0.99 | -0.14
Cc1ccc(-n2c(Cc3cccn3C)nnc2SCC(=O)Nc2ccc(Br)cc2)cc1 | 0.91 | -2.3
COc1cccc(-c2nnc(SCC(=O)N3CCCCC3)o2)c1 | 1.4 | 0.99
Cc1cccc(C(=O)NC(Cc2ccccc2)c2nc3ccccc3[nH]2)c1 (stereo not given) | 0.9 | -1.9
COc1ccc(-c2oc3ncnc(N)c3c2-c2ccc(OC)cc2)cc1 | 1.1 | 2.6
COCCn1c(SCC(=O)Nc2ccc(Cl)c(Cl)c2)nnc1-c1c[nH]c2ccccc12 | 0.93 | -0.45
CCC(Cc1ccccc1)NC(=O)c1csc2c1CCC(C)C2 (stereo not given) | 1.1 | 3.6
COc1ccc(NC(=O)C(=O)NCc2ccccn2)cc1OC | 0.94 | -2.2

Structures above that contain four or more nitrogen atoms (five):
SMILES | CBX7 inh | CBX7 inh z-score
O=C(CCNC(=O)Cn1ccc2ccccc2c1=O)NCCCN1CCN(c2ccccc2F)CC1 | 1.1 | 3.1
COc1ccc(Nc2cc(C)nc3nc(C)nn23)cc1Cl | 1 | 0.89
O=C(Nc1ccc(-c2noc(/C=C/c3ccccc3)n2)cc1)c1ccncc1 | 0.99 | -0.14
Cc1ccc(-n2c(Cc3cccn3C)nnc2SCC(=O)Nc2ccc(Br)cc2)cc1 | 0.91 | -2.3
COCCn1c(SCC(=O)Nc2ccc(Cl)c(Cl)c2)nnc1-c1c[nH]c2ccccc12 | 0.93 | -0.45

The results go on.
SMILES | CBX7 inh | CBX7 inh z-score
Cc1nc(NCc2ccccc2)c2c(C)c(C)sc2n1 | 1.2 | 1.5
CC(=O)N1c2ccc(S(=O)(=O)Nc3ccc(OC(F)(F)F)cc3)cc2CC1C (stereo not given) | 0.94 | -0.23
CN(c1ccc(Br)cc1)S(=O)(=O)c1ccc2c(c1)CCN2C(=O)C1CCC1 | 1 | 0.51
Cc1ccc(-c2nc(-c3ccc(Cl)cc3)no2)c(Cl)c1 | 1.2 | 0.19
O=C(NCCC1=CCCCC1)C1CCCN(S(=O)(=O)c2cccc3cccnc23)C1 (stereo not given) | 0.83 | -0.22
COc1ccc(-c2noc(COc3cc(C)cc(C)c3C)n2)cc1OC | 1 | 0.8
O=C1c2cccc([N+](=O)[O-])c2C(=O)N1CCc1c[nH]c2ccc(OCc3ccccc3)cc12 | 0.98 | -0.52
CCCOc1ccc(C(=O)N(Cc2ccccc2Cl)C2CCS(=O)(=O)C2)cc1 (stereo not given) | 0.9 | -0.1
Cc1cc(C)c(Cc2c(C)nc3c(C(=O)NCc4c(F)cc(F)cc4F)cnn3c2C)c(C)c1 | 1 | -0.062
Cc1cc(-n2nc(C)cc2C)nc(NS(=O)(=O)c2ccccc2)n1 | 1.2 | 2.1
Cc1ccc(CCNC(=O)C2CCCN(S(=O)(=O)c3cccnc3)C2)cc1 (stereo not given) | 1 | 0.85
Cc1ccc(OCC(O)CN2CCOCC2)cc1 (stereo not given) | 0.73 | -1.1
CCN(c1cccc(C(F)(F)F)c1)S(=O)(=O)c1ccc2c(c1)CCN2C(=O)C1CC1 | 1.1 | 2.6
CCCNC(=O)c1cc(-c2ccc(Cl)cc2)on1 | 1 | 0.12
O=C(Nc1cccc(-c2nc3cc(Cl)ccc3o2)c1)c1ccccc1Cl | 1 | 0.2
Cc1ccc2c(c1)C(c1ccc(F)cc1)N(C(=O)c1cccc(Br)c1)CC(=O)N2 (stereo not given) | 0.66 | -6.2
Cc1ccc2c(c1)c(=O)c(S(=O)(=O)c1ccc(F)cc1)cn2CC(=O)Nc1ccc(Cl)cc1 | 0.9 | -1.4
O=C(Cc1ccc(NC2=NC3CS(=O)(=O)CC3S2)cc1)NCc1ccc2c(c1)OCO2 (stereo not given) | 0.86 | -1.5
COc1ccc(NC(=O)CCc2c(C)nc3cc(-c4ccccc4)nn3c2C)c(OC)c1 | 0.99 | -0.31
COc1ccccc1OCC(=O)Nc1ncc(Cc2ccc(Br)cc2)s1 | 0.96 | -0.047
CCCCCn1c(C(C)NC(=O)Cc2ccccc2)nc2ccccc21 (stereo not given) | 0.97 | -0.84
Cc1cc(C)c(NC(=O)C(=O)NCCc2c[nH]c3ccccc23)c(C)c1 | 0.98 | -0.26
CCOC(=O)c1nc(Nc2cccc(Cl)c2C)c2ccccc2n1 | 1 | 0.14
Cc1cccc(N2CCN(C(=O)CN3CCN(Cc4ccc(Cl)cc4)C3=O)CC2C)c1 (stereo not given) | 0.83 | -2.2
COc1ccccc1N1CCN(C(=O)c2cnc(Nc3ccc(C)c(Cl)c3)c3ccccc23)CC1 | 1.1 | 2.2
Cc1ccc2c(c1)c1c3n2CCN(CCC#N)C3CCC1 (stereo not given) | 0.99 | -0.043
CCCC(O)(c1ccc(F)cc1)C(CN1CCOCC1)c1ccccc1 (stereo not given) | 0.97 | -0.65
COc1ccc(-c2nc(CN3CCC(C(=O)NC4CC4)CC3)c(C)o2)cc1OC | 1 | 0.42
CCC(Oc1ccc(F)cc1)C(=O)Nc1c(C(=O)c2ccc(C)cc2)oc2ccccc12 (stereo not given) | 1.1 | 0.52
Cc1ccc(C(=O)O)c(C(=O)Nc2nc3ccc(S(C)(=O)=O)cc3s2)c1 | 1.1 | 2.8
CCCN(CCC)CCNC(=O)c1sc2ncn(CC(=O)N3CCCCC3C)c(=O)c2c1C (stereo not given) | 0.98 | -0.56
COc1ccc(N2CCN(c3ncnc4sc(C(=O)N5CCOCC5)c(C)c34)CC2)cc1 | 0.88 | -0.21
COc1ccccc1-c1cc(C(=O)Nc2cc(C)on2)no1 | 0.99 | -0.21
Cc1ccc(CNC(=O)c2oc3ccc(S(=O)(=O)N4CCCC(C)C4)cc3c2C)cc1 (stereo not given) | 1 | 0.3
COc1cc2c(c(OC)c1)C(c1cccc3ccccc13)CC(=O)N2 (stereo not given) | 1.2 | 1.4
CC(=O)N1CCC(N(C(=O)Nc2cccc(C)c2)C2CCCC2)CC1 | 1.1 | 1.6
Cc1nc2c(-c3ccccc3)c(C)nn2c(C)c1CCC(=O)Nc1ccc(Br)cc1 | 1.2 | 2
COc1ccccc1-n1c2c(cc(C(=O)N3CCC(C)CC3)c1=O)C(=O)CC(C)(C)C2 | 1 | 0.19
CN(c1ccccc1)S(=O)(=O)c1ccc(C(=O)Nc2nc(-c3ccc(Cl)cc3)cs2)cc1 | 0.89 | -1.9
O=C(CCN1C(=O)COc2ccccc21)NC1CCCCCCC1 | 1.1 | 3.4
COc1ccc2nc(NS(=O)(=O)c3ccc(Cl)cc3)c(Nc3ccc(C)cc3)nc2c1 | 1.1 | 1.2
Cc1cccc(C)c1NC(=O)COc1nsnc1N1CCOCC1 | 1.2 | 1.7
CC(C)CCNC(=O)CN1C(=O)COc2ccc(S(=O)(=O)N3CCC(C)CC3)cc21 | 1 | 0.91
O=C(Nc1ccc2c(c1)OCCO2)C(c1ccccc1)N1CCOCC1 (stereo not given) | 1 | 0.31
c1ccc(C2(c3ccccc3)OCC(Cn3cncn3)O2)cc1 (stereo not given) | 0.97 | -0.042
CC(C)Oc1ccc(C(=O)Nc2ccc(-c3nc4ncccc4o3)cc2)cc1 | 1.1 | 0.56
O=C(NCCCN1CCN(c2ccccc2F)CC1)Nc1ccccc1 | 1.2 | 1.8
CC(Sc1oc(-c2cccs2)nc1S(=O)(=O)c1ccc(F)cc1)c1ccccc1 (stereo not given) | 1 | 0.012
CCCCNS(=O)(=O)c1ccc2c(c1)CCN2C(=O)C1CCC1 | 0.98 | -0.62
Cc1ccc(-c2nn(C)c(=O)c3ccccc23)cc1S(=O)(=O)NCCCN(C)C | 1.2 | 2
(continued)
SMILES | CBX7 inh | CBX7 inh z-score
Cc1cc(C)c(NC(=O)CN2CCN3CCCC3C2)c(C)c1 (stereo not given) | 0.92 | -1.2
O=C(Nc1ccccc1C(F)(F)F)C1CC(c2ccc(F)cc2)=NO1 (stereo not given) | 1 | 1.8
CCN1CCN(c2nnc(-c3cccs3)c3ccccc23)CC1 | 0.94 | -0.071
COc1cc(OC)c(Nc2ncnc3sc(C)c(S(=O)(=O)N4CCC(C)CC4)c23)cc1Cl | 1.1 | 2.4
Oc1c(Br)cc(CN2CCCCC2)c2cccnc12 | 0.0057* | -13*
CCCCOc1ccc(C(=O)NCC2(c3ccc(OC)cc3)CCOCC2)cc1 | 0.95 | -1.6
Cc1ccc(O)c(-c2cc(-c3ccc(Cl)cc3)no2)c1 | 1.1&1.1 | 1.4&1.4
CCOc1ccccc1NC(=O)CNC(=O)c1nn(-c2ccc(OC)cc2)c(=O)c2ccccc12 | 1.1 | 1.1
COc1ccc(NC(=O)CC2Sc3ccccc3NC2=O)cc1 (stereo not given) | 1 | 0.21
O=C(Nc1nnc(-c2ccc(F)cc2)s1)c1ccc(Br)cc1 | 1.1 | 1.7

Already shown: six of the compounds above.
SMILES | CBX7 inh | CBX7 inh z-score
Cc1cc(C)c(NC(=O)CN2CCN3CCCC3C2)c(C)c1 (stereo not given) | 0.92 | -1.2
O=C(Nc1ccccc1C(F)(F)F)C1CC(c2ccc(F)cc2)=NO1 (stereo not given) | 1 | 1.8
CCN1CCN(c2nnc(-c3cccs3)c3ccccc23)CC1 | 0.94 | -0.071
COc1cc(OC)c(Nc2ncnc3sc(C)c(S(=O)(=O)N4CCC(C)CC4)c23)cc1Cl | 1.1 | 2.4
Oc1c(Br)cc(CN2CCCCC2)c2cccnc12 | 0.0057* | -13*
CCCCOc1ccc(C(=O)NCC2(c3ccc(OC)cc3)CCOCC2)cc1 | 0.95 | -1.6

Further structures
SMILES | CBX7 inh | CBX7 inh z-score
FC(F)(F)c1cc(-c2ccccc2)nc(-n2cc(Br)cn2)n1 | 1.3 | 8.2
Cc1ccc(S(=O)(=O)N(C)c2cccc3cccnc23)cc1 | 1.1 | 1.1
CCOC(=O)N1CCN(c2c(NCCCN3CCCCCC3)c(=O)c2=O)CC1 | 0.97 | -0.54
Cc1ccc(CN2C(=O)C(O)(CC(=O)c3cccnc3)c3cc(Cl)ccc32)cc1 (stereo not given) | 0.52 | -0.64
CCOc1ccc(C(=O)Nc2nnc(CC)s2)cc1Br | 1.1 | 0.54
Cc1cccc(-c2noc(CN(C(=O)COc3ccc(Br)c(C)c3)C(C)C)n2)c1 | 0.99 | -0.29
O=C(CSc1nc(-c2ccccc2)cn1-c1ccc(F)cc1)NC1CCCCC1 | 0.9 | -3.3
CCOc1ccc2nc(N3CCCCCC3)sc2c1 | 0.96 | -0.43
CCOc1ccc(-c2cc(C(=O)NC3CCCC(C)C3C)c3ccccc3n2)cc1 (stereo not given) | 1.2 | 2.8
Oc1c(-c2cc(-c3ccc(Cl)cc3)n[nH]2)ccc2ccccc12 | 0.75 | -2.7
COc1ccc(NC(=O)c2sc3ncn(CC(=O)N4CCC(C)CC4)c(=O)c3c2C)c(OC)c1 | 1 | 0.045
Cc1c(C(=O)Nc2cccc(C(F)(F)F)c2)sc2ncn(Cc3ccccc3Cl)c(=O)c12 | 1.1 | 0.46
CC1CCC(NC(=O)C2c3cccn3CC(=O)N2Cc2ccc(F)cc2)CC1 (stereo not given) | 1.2 | 1
CCOc1ccc2nc(Nc3ncc4c(n3)CC(C)(C)CC4=O)nc(C)c2c1 | 1 | 0.97
O=C(O)c1ccc2c(c1)N(Cc1ccccc1F)C(=O)c1ccccc1S2 | 1 | 0.37
COc1ccc(Cn2c(CCC(=O)Nc3ccccc3)nc3cccnc32)cc1 | 1 | 1.9
CCOc1ccc(-n2c(Cc3cc(=O)[nH]c(=O)[nH]3)nnc2SC(C)C)cc1 | 0.82 | -2.8
CCC1CCCCN1CCCNC(=O)C1CCC(=O)N1C1CCCC1 (stereo not given) | 1 | 0.7
Cc1ccc(-c2cc(-c3cc(-c4ccc(C)cc4C)n(-c4ccccc4)n3)nn2-c2ccccc2)c(C)c1 | 1.2 | 1.2
Cc1cccc(OCC(O)Cn2c(=N)n(C)c3ccccc32)c1 (stereo not given) | 0.99 | -0.27
COc1cccc(N2C(=O)C(CC(=O)Nc3ccccc3)N(CCC3=CCCCC3)C2=O)c1 (stereo not given) | 0.98 | -0.65
CCOc1ccc(N2CCc3c2nc2ccc(Br)cc2c3N)cc1 | 0.21* | -11*

Not all compounds are listed; rates above refer to the full screens.
